High-throughput results as filed in PubChem BioAssay.
M4 antag: blocks acetylcholine activation of human M4 receptor; CHO-hM4 cells, ACh EC80, Fluo-8 calcium fluorescence; inhibition, % at 3 µM; 360,000 tested, 0.73% active; AID 624125;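 active = inhibition above its plate's cutoff, the mean inhibition of sample wells plus 3 SD, cut at about 27% in these data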;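 also: 0% = acetylcholine EC80 with DMSO and 100% = DMSO without agonist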
Target sequence (P08173 whole entry, looked up): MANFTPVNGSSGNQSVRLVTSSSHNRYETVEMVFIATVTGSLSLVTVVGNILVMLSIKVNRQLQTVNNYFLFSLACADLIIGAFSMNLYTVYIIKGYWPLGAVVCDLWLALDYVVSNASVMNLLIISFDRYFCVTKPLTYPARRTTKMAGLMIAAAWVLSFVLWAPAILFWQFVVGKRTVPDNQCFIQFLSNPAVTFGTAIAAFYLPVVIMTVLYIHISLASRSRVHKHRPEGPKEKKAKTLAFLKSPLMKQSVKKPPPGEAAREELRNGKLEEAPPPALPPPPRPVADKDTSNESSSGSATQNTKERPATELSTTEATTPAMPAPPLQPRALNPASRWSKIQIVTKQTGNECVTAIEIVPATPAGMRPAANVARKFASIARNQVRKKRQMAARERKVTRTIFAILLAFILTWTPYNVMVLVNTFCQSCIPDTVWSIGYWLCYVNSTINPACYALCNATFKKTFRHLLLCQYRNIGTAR
CHRM5 antagonist: CHRM5 antagonism in calcium assay. P08912. inhibition, % at 3 µM. 360,000 tested, 0.59% active. CHO-hM5 cells, Fluo-8 calcium fluorescence, ACh EC80;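 active = inhibition above a per-plate cutoff, the mean of that plate's test compounds plus 3 SD, cut at about 27% in these data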;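 also: 0% = acetylcholine EC80 with DMSO and 100% = DMSO without agonist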
CHRM5 PAM: positive allosteric modulators of human muscarinic M5 receptor. P08912. CHO-K1 hM5, Fluo-8 calcium, ACh EC20 PAM; 0% = ACh EC20, 100% = ACh EC100. activation, % at 3 µM. 360,000 tested, 0.3% active;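 active = activation above the run cutoff, the mean activation of all test compounds plus 3 SD, cut at about 18% in these data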
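System: CHO-K1 cell line with stable human muscarinic M5 receptor expression | Also added: EC20 acetylcholine as agonist stimulus | Compound: One concentration, 3 µM final (nominal) | Timing: Fluo-8 loading 80 min at 37 °C plus 30 min room temperature | Measured by: Fluo-8 calcium dye fluorescence, kinetic read | Read-out basis: % activation, ACh-normalized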
CHRM4 PAM: positive allosteric modulators of human muscarinic M4 receptor | CHO-K1 hM4/Gqi5, Fluo-8 calcium fluorescence, ACh EC20; 0% = ACh EC20, 100% = maximal ACh | activation, % at 3 µM | 360,000 tested, 0.4% active | AID 624126;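 active = activation above its plate's cutoff, the mean activation of sample wells plus 3 SD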; also: some results filed as inactive read as strong as hits
CHRM5 agonist: agonists of human muscarinic M5 receptor (CHRM5). 360,000 tested, 0.19% active. CHO-K1 hM5 cells, Fluo-8 calcium fluorescence; 0% DMSO wells, 100% maximal acetylcholine response. P08912. activation, % at 3 µM;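 active = activation above the run's mean over test compounds plus 3 SD, cut at about 23% in these data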;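 also: signal is peak over basal fluorescence ratio across the kinetic read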
Active calls of the source: *; & = joins results of further samples. A portion of the library. The share of hits here may be higher or lower than overall.

Start of the listing, in advance, three compounds:
| entry | structure | M4 antag | CHRM5 antagonist | CHRM5 PAM | CHRM4 PAM | CHRM5 agonist |
| --- | --- | --- | --- | --- | --- | --- |
| 1 | CO[C@@]12[C@H](COC(N)=O)C3=C(C(=O)C(C)=C(N)C3=O)N1C[C@@H]1N[C@@H]12 | 6 | -1 | 0 | 0 | 1 |
| 2 | CC(=O)Nc1cccc(-c2nnc(-c3ccc(C)cc3)o2)c1 | -1 | -7 | -1 | 6 | 2 |
| 3 | Cc1cccc(N2CCN(C(=O)c3cc4c(=O)n(C)c5ccccc5c4n3C)CC2C)c1 (stereo not drawn) | 9 | 7 | -10 | -12 | 2 |

The listing, repeating the preview:
| entry | structure | M4 antag | CHRM5 antagonist | CHRM5 PAM | CHRM4 PAM | CHRM5 agonist |
| --- | --- | --- | --- | --- | --- | --- |
| 1 | CO[C@@]12[C@H](COC(N)=O)C3=C(C(=O)C(C)=C(N)C3=O)N1C[C@@H]1N[C@@H]12 | 6 | -1 | 0 | 0 | 1 |
| 2 | CC(=O)Nc1cccc(-c2nnc(-c3ccc(C)cc3)o2)c1 | -1 | -7 | -1 | 6 | 2 |
| 3 | Cc1cccc(N2CCN(C(=O)c3cc4c(=O)n(C)c5ccccc5c4n3C)CC2C)c1 (stereo not drawn) | 9 | 7 | -10 | -12 | 2 |
| 4 | Cc1cn([C@H]2C[C@H](N=[N+]=[N-])[C@@H](CO)O2)c(=O)[nH]c1=O | -7 | -8 | 7 | 12 | 1 |
| 5 | O=C(Nc1ccc([N+](=O)[O-])cc1Cl)c1cc(Cl)ccc1O | -17 | 14 | -12 | -3 | 9 |
| 6 | O=c1[nH]c(=O)n([C@H]2C[C@H](O)[C@@H](CO)O2)cc1I | -5 | -5 | 2 | 2 | -1 |
| 7 | Cc1ccc(C)c(OCCCC(C)(C)C(=O)O)c1 | 0 | 0 | -4 | 1 | 1 |
| 8 | OC(CNCC1CCCO1)Cn1c2ccc(Cl)cc2c2cc(Cl)ccc21 (stereo not drawn) | 14 | 6 | -1 | -6 | 6 |
| 9 | c1ccc(-c2ccc(C(c3ccccc3)n3ccnc3)cc2)cc1 (stereo not drawn) | -7 | 11 | -10 | -1 | 0 |
| 10 | Cc1ccc2c(c1)C1CN(C)CCC1N2C(=S)NC(=O)c1ccc(Br)cc1 (stereo not drawn) | -4 | 11 | 0 | -1 | -13 |
| 11 | CC(=O)O[C@]1(C(C)=O)CC[C@H]2[C@@H]3C[C@H](C)C4=CC(=O)CC[C@]4(C)[C@H]3CC[C@@]21C | -1&-5 | -3&1 | 1&1 | -5&-2 | 0&0 |
| 12 | CC(COc1ccccc1)N(CCCl)Cc1ccccc1 (stereo not drawn) | -3 | -3 | 1 | -1 | -2 |
| 13 | Cc1nc2ccc(S(=O)(=O)NCC(=O)NCCN3CCCCCC3)cc2s1 | 6 | -4 | 8 | -4 | -3 |
| 14 | CC1(C)O[C@@H]2CC3C4C[C@H](F)C5=CC(=O)C=CC5(C)C4C(O)CC3(C)[C@]2(C(=O)CO)O1 (stereo partly drawn) | -5 | -5 | 2 | -2 | 1 |
| 15 | CC[N+](C)(C)Cc1ccccc1Br | -7 | -1 | -4 | -4 | -1 |
| 16 | O=C(O)/C=C\C(=O)O | -11 | 3 | -6 | 1 | 0 |

Full records, looked up by structure. Order of screens: M4 antag, CHRM5 antagonist, CHRM5 PAM, CHRM4 PAM, CHRM5 agonist
`CC(COc1ccccc1)N(CCCl)Cc1ccccc1` (stereo not drawn) is entered as -3, -3, 1, -1, -2
`O=C(O)/C=C\C(=O)O` is entered as -11, 3, -6, 1, 0
`c1ccc(-c2ccc(C(c3ccccc3)n3ccnc3)cc2)cc1` (stereo not drawn) is entered as -7, 11, -10, -1, 0

The listing continues.
| entry | structure | M4 antag | CHRM5 antagonist | CHRM5 PAM | CHRM4 PAM | CHRM5 agonist |
| --- | --- | --- | --- | --- | --- | --- |
| 17 | O=c1[nH]cnc2c1ncn2[C@H]1CC[C@@H](CO)O1 | -5 | 0 | 1 | 5 | 0 |
| 18 | Cc1cc(C2CCCCC2)n(O)c(=O)c1 | 1 | -7 | -4 | 1 | 2 |
| 19 | CCOc1ccccc1C1NC(=O)c2ccccc2N1 (stereo not drawn) | -6 | -9 | 3 | 0 | 1 |
| 20 | CO[C@@]12[C@@H]3N[C@@H]3CN1C1=C(C(=O)C(N)=C(C)C1=O)[C@@H]2COC(N)=O | -2 | 11 | 1 | 0 | -1 |
| 21 | O=C(O)c1cc(NS(=O)(=O)c2cccc3ccccc23)ccc1O | 8 | -1 | 4 | 6 | 0 |
| 22 | CCOC(=O)c1ncn2c1CN(C)C(=O)c1cc(F)ccc1-2 | 9 | 6 | -4 | -9 | 0 |
| 23 | N#Cc1c(-c2cccc(Br)c2)cc(-c2ccco2)[nH]c1=O | 6 | 7 | -10 | -6 | 7 |
| 24 | CC1(C)S[C@@H]2[C@H](NC(=O)[C@H](N)c3ccccc3)C(=O)N2[C@H]1C(=O)O | 15&1 | 8&-12 | -3&13 | -6&5 | 2&1 |

Two entries from above, with two lines to a compound:
Every second line gives: M4 antag	CHRM5 antagonist	CHRM5 PAM	CHRM4 PAM	CHRM5 agonist
18. Cc1cc(C2CCCCC2)n(O)c(=O)c1
  1	-7	-4	1	2
19. CCOc1ccccc1C1NC(=O)c2ccccc2N1 (stereo not drawn)
  -6	-9	3	0	1

Following part:
| entry | structure | M4 antag | CHRM5 antagonist | CHRM5 PAM | CHRM4 PAM | CHRM5 agonist |
| --- | --- | --- | --- | --- | --- | --- |
| 25 | C[C@H](CCC(=O)O)[C@H]1CC[C@H]2[C@@H]3[C@H](O)C[C@@H]4C[C@H](O)CC[C@]4(C)[C@H]3C[C@H](O)[C@]12C | 0&1&-13 | 0&4&-1 | 3&1&-7 | 3&3&4 | 0&0&3 |
| 26 | COc1ccc([C@@H]2Sc3ccccc3N(CCN(C)C)C(=O)[C@@H]2OC(C)=O)cc1 | -1 | 0 | 1 | 8 | 0 |
| 27 | Cc1nc(-c2ccccc2)c(-c2ccccc2)[nH]1 | -2 | 0 | -1 | -5 | 3 |
| 28 | COc1ccc(C2CC(c3ccccc3)=NN2C(=O)CCCC(=O)O)cc1 (stereo not drawn) | -2 | -3 | 1 | 3 | 5 |
